# Source: PubChem BioAssay (National Center for Advancing Translational Sciences (NCATS))
# Six1-Eya2 blk: Six1/Eya2 interaction inhibition; Q15475+O00167; AlphaScreen GST-Six1/His-Eya2 binding, biochemical; active compounds read low; control for the full effect not named in the record; activity change, % (no concentration beside the values); 360,000 compounds, 0.56% hits; in the data active = activity change below about -65%; inconclusive = about -30% to -65%; inactive = above about -30%; further: on the % scale 0 is the no-effect control and ±100 the full control effect
#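 AlphaScreen with GST-Six1 and His-Eya2 (5X mix: 250 nM and 500 nM), glutathione donor and nickel acceptor beads; buffer 50 mM Tris pH 8.0, 300 mM NaCl, 1 mM TCEP; 1 h at 37 C in the dark.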
# PINK1 expr mod: changes PINK1 expression. PINK1 immunofluorescence, high-content cytometry, 24 h. Potency, µM (titrated, usually from 76.6 µM), for inactives: at the top dose activation (PINK1 increase), most hits filed as activators. 410,000 compounds, 0.2% hits; active = well fitted activation curve with a large enough effect; inconclusive = small, poorly fitted or top-dose-only effect; inactive = flat fitted curve, though single readings scatter; cell line not stated here;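 further: potency means the concentration at half of the fitted maximal effect; % of control where 0% means no effect; nearly all actives have a fitted effect of over 65% in size; a mitochondrial uncoupler was the plate control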
#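 Readout is PINK1 immunofluorescence, quantified alongside mitochondrial, cell and nuclear markers by laser-scanning microplate cytometry. Cells from a stable line were exposed to compound titrations (5 concentrations) for 24 hours, with CCCP controls.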
# D2 ag: agonists of human D2 dopamine receptor (beta-arrestin). DiscoveRx PathHunter D2 beta-arrestin, luminescence, 90 min; 100% = 57 uM dopamine signal. activation, % (no concentration beside the values). AID 624465. 360,000 compounds, 0.084% hits. P14416; in the data active = activation above about 40%; inconclusive = about 15% to 40%; inactive = below about 15%; further: compound concentration not given in the record; the text of the record calls up to 30% inactive
# Target sequence (P14416 whole entry, looked up): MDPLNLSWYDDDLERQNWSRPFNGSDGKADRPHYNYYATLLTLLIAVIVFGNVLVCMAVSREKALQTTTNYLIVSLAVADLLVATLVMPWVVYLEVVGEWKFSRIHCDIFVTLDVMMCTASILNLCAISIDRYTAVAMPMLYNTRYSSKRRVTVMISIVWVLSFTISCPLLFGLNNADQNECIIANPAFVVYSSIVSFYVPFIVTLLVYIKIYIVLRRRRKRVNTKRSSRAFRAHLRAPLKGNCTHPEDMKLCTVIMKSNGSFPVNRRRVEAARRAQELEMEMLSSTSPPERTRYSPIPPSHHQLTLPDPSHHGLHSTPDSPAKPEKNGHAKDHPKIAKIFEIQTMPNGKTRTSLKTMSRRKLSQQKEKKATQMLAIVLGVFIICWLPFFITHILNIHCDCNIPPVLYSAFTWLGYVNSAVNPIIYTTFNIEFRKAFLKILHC
#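 Agonist mode: compounds alone added to overnight-plated D2 PathHunter cells for 90 min at 37 C, with 57 uM final dopamine (EC100) defining full response. Beta-arrestin recruitment detected by chemiluminescent reagent, read after 1 h at ambient temperature.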
# TRPML1 agonist: activates the human TRPML1 channel. Q9GZU1. TRPML1-expressing cells, Ca2+ dye fluorescence, FDSS; host cell line not named in the record; reference of the full effect not given here. activation, % (test concentration not listed). 410,000 compounds, 0.12% hits; in the data active = activation above about 50%; inconclusive = about 30% to 50%; inactive = below about 30%; further: 0% is about no effect; the text of the record puts the active cut at 80%
# Target sequence (Q9GZU1 whole entry, looked up): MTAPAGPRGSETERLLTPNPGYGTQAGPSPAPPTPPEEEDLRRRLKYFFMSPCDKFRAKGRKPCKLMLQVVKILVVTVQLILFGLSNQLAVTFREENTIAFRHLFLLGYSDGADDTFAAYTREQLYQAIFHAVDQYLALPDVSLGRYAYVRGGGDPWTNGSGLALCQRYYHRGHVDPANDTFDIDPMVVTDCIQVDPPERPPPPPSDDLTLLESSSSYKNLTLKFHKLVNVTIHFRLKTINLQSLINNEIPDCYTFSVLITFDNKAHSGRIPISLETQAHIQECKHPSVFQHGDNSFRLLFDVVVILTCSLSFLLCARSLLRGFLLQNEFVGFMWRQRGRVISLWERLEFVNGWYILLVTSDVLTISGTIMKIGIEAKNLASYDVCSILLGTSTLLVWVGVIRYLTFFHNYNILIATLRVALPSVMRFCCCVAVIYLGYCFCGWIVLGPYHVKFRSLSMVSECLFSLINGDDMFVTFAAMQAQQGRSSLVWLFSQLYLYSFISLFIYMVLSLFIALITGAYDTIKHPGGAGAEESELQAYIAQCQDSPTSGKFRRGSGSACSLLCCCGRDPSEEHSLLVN
#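 Cells: TRPML1-DL, 1X Tet inducer, ~16 h at 37 degrees C/5% CO2. Dye: ABD Ca8 no-wash + quencher, 45-90 min RT. Read: 10 s baseline, compound add, 110 s agonist phase; 54-4 EC80 (4uM final), 110 s antagonist phase.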
# TRPML1 inh: blocks the human TRPML1 channel. TRPML1-inducible cells, Ca2+ dye fluorescence, FDSS; active compounds read low; inhibition of EC80 agonist-evoked calcium signal. AID 624415. Q9GZU1. activity change, negative = inhibition, % (no concentration beside the values). 390,000 compounds, 0.02% hits; in the data active means activity change below about -50%; inconclusive means about -30% to -50%; inactive means above about -30%;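 further: stimulus is agonist 54-4 at its EC80 concentration; on the % scale 0 is the no-effect control and ±100 the full control effect; compound concentration not given in the record; the text of the record puts the active cut at -80%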
#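 Tet-induced TRPML1-DL cells loaded with Ca8 no-wash calcium dye were read kinetically on FDSS. Compound addition was followed by EC80 agonist 54-4 (4 uM final); inhibition was read over 110 s.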
# D2 PAM: human D2 receptor positive allosteric modulation | P14416 | DiscoveRx D2 beta-arrestin cells, luminescence, 90 min; 100% = 57 uM dopamine signal | potentiation, % (concentration not given with the values) | 360,000 compounds, 0.23% hits; active = potentiation of 50% or more; inconclusive = 30% to 50%; inactive = 30% or less;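 further: tested on top of an EC20 dose of dopamine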
#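 PathHunter beta-arrestin assay in DiscoveRx D2 cells. Compounds were added with an EC20 of dopamine (50 nM final) for 90 min at 37 deg C. Luminescence was read 1 h after detection reagent, with 57 uM dopamine as the EC100 control.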
# * hit, by the source's call; ? = inconclusive; / = no result given; & = joins results of further samples; [ ] = remark or other dose.
SMILES,Six1-Eya2 blk,PINK1 expr mod,D2 ag,TRPML1 agonist,TRPML1 inh,D2 PAM
Cc1ccccc1C(=O)NC1CCN(Cc2nnnn2C2CCCC2)CC1,8.6,-2.6%,-0.2,0.7,6.5,-37.1
CCOC(=O)CNC(=O)C(Cc1ccccc1)NS(=O)(=O)c1cccs1 (stereo unspecified),3.3,-2.3%,1.1,1.4,7.3,-11.0
COc1cccc(OCC(O)CN2CCN(c3ccccn3)CC2)c1 (stereo unspecified),1.7,3.0%,?,-0.2,-2.1,21.0
CCN(C(=O)Cc1cccs1)c1nnc(-c2cccnc2)s1,-1.2,-0.8%,2.2,-0.4,6.1,-11.2
COCCNC(=O)c1cccc(OC2CCN(Cc3ccc(OC(F)F)cc3)CC2)c1,0.2,-0.1%,5.7,-0.1,5.5,-15.0
C=CCn1c(SCC#N)nnc1-c1ccc2ncccc2c1,0.0,-1.6%,-2.3,2.6,4.8,1.2
CCn1c(=O)n(CC)c2cc(N3CCCC3)c(NC(=O)c3cccc(C)c3)cc21,-5.4,3.9%,6.4,1.9,-4.7,-6.1
CCCCS(=O)(=O)NC1=NCN(Cc2ccco2)CN1,23.4,-2.4%,-3.0,-0.8,10.7,2.2
CC(Oc1cccc2ccccc12)C(=O)N/N=C/c1cccnc1 (stereo unspecified),-8.7,1.0%,-3.0,1.1,-15.1,-21.9
Cc1nn(C)c(C)c1CN(C)C(=O)c1nn2c(c1Br)NC(c1cccs1)CC2C(F)(F)F (stereo unspecified),14.0,0.3%,-3.9,0.0,6.8,-9.5
Cc1c(NS(C)(=O)=O)cccc1-c1nc2ccccc2s1,/,0.4%,/,0.6,9.1,/
Cn1cc(S(=O)(=O)N2CCCCC2)cc1C(=O)Nc1ccc(OC(F)(F)F)cc1,/,7.9%,/,1.3,-8.3,/
O=C(O)CC(NCc1ccco1)C(=O)OCCc1ccccc1 (stereo unspecified),6.9,-0.7%,-0.3,-0.2,11.5,-11.9
O=C(NNC(=O)c1cc(S(=O)(=O)N2CCOCC2)c(Cl)cc1Cl)c1ccccc1F,-65.7*,2.6%,-3.3,-1.0,-8.1,-1.1
CCc1ccc(NC(=O)N2CCN(C(=O)c3nsc4ccccc34)CC2)cc1,/,0.4%,/,-0.4,7.3,/
CC(C)(C)N(Cc1ccccc1)C(=O)COC(=O)CN1C(=O)C2CC=CCC2C1=O (stereo unspecified),0.1,-0.5%,-6.6,-0.2,4.4,-5.9
Cc1cc(C)cc(NC(=O)CSc2nnc(-c3ccccc3)n2N)c1,-8.0,1.5%,-4.2,2.1,1.7,-18.8
Cc1ccc(N2C(=O)C3C(C2=O)C(C(=O)c2ccc(Cl)cc2)N2CCCC32)cc1 (stereo unspecified),-3.2,-0.7%,-2.9,-0.6,31.0,-14.2
CC(C)CN(C(=O)CSc1ncnc2sccc12)C1CCS(=O)(=O)C1 (stereo unspecified),5.5,-0.1%,-4.0,0.3,-2.1,-2.3
CS(=O)(=O)N(CCc1ccccc1)CC(=O)NCc1ccccn1,-1.4,-1.1%,-1.2,1.2,-2.7,0.9
CC1=C(C(=O)Nc2cc(C(=O)NCCC(C)C)ccc2C)SCCO1,-0.4,-0.3%,5.7,0.5,2.7,-22.6
Cn1c(CO)cnc1S(=O)(=O)Cc1ccc([N+](=O)[O-])cc1,-6.8,0.8%,-2.7,-0.8,5.0,-8.9
Cc1cccc(NC(=O)C(C)OC(=O)c2ccccc2NS(=O)(=O)c2cc(C)c(C)c([N+](=O)[O-])c2)c1 (stereo unspecified),-12.9,20µM*,4.0,0.5,1.4,0.0
CCCCc1cc(=O)oc2cc(OCC(=O)N3CCC(C(N)=O)CC3)ccc12,-0.3,0.9%,0.2,0.2,-5.0,-2.7
Cc1ccc2nc(N3C(=O)C(O)=C(C(=O)c4ccc(C)o4)C3c3ccc(O)cc3)sc2c1 (stereo unspecified),-2.3,4.5%,8.5,0.2,11.0,-2.7
COc1ccc(C(=O)NN2C(=S)N(c3ccc(OC)cc3)C(=O)C2CC(N)=O)cc1 (stereo unspecified),12.5,2.1%,-6.3,0.0,2.9,-2.9
COc1ccc(NC(=O)CN2CCC(n3c(C)nc4cc(F)ccc43)CC2)c(OC)c1,-0.7,-1.7%,1.8,0.1,10.1,-6.6
Cc1c(O)ccc2c(CC(=O)N[C@@H](Cc3c[nH]c4ccccc34)C(=O)O)cc(=O)oc12,4.8,1.3%,-3.0,-0.3,0.0,0.6
COc1ccccc1NC(=O)N1CCCC1C(=O)NC1CCCCC1 (stereo unspecified),0.1,2.5%,-1.7,2.1,5.2,-5.6
Cc1ccc2[nH]cc(CCNC(=O)c3ccc4c(c3)OCO4)c2c1,-6.5,-0.8%,-2.7,-0.6,-7.6,-1.3

# Structures listed above marked active in PINK1 expr mod:
SMILES | Six1-Eya2 blk | PINK1 expr mod | D2 ag | TRPML1 inh | D2 PAM
Cc1cccc(NC(=O)C(C)OC(=O)c2ccccc2NS(=O)(=O)c2cc(C)c(C)c([N+](=O)[O-])c2)c1 (stereo unspecified) | -12.9 | 20µM* | 4.0 | 1.4 | 0.0

# Further entries.
SMILES,Six1-Eya2 blk,PINK1 expr mod,D2 ag,TRPML1 agonist,TRPML1 inh,D2 PAM
CC(=O)Nc1ccc(CNc2nc(NC(C)C)nc3cc(-c4ccccc4)sc23)cc1,-13.3,-1.0%,5.7,-0.9,/,-3.1
NC(=O)C1CCN(C(=O)C2CC(=O)N(c3ccc4c(c3)OCCO4)C2)CC1 (stereo unspecified),-2.0,-0.4%,-3.8,-0.5,3.0,-6.1
CCc1ccc(/C=C2/SC(=S)N(CCCC(=O)Nc3ccccc3C(=O)O)C2=O)cc1,-1.1,-0.6%,4.2,0.6,-1.7,1.9
CCc1cccc2c(/C=N/NC(=O)c3cccc(S(=O)(=O)Nc4ccccc4Cl)c3)c[nH]c12,-27.9,2.1%,-0.1,-0.8,12.1,-2.0
CCOC(=O)C1(C)CCCN(C(=O)c2c(F)cccc2F)C1 (stereo unspecified),-3.3,1.0%,-4.6,-0.6,/,0.1
CCC1Oc2ccc(C)cc2N(CC(=O)NCc2cc(OC)ccc2OC)C1=O (stereo unspecified),0.3,-0.6%[38.3 µM],-1.0,-0.3,-1.3,-11.0
COc1ccccc1NC(=O)C(=O)c1cn(CC(=O)N2CCCC2)c2ccccc12,-2.0,4.0%,7.0,0.8,28.0,0.7
CC(C)(C)NC(=S)Nc1ccc(Nc2ccccc2)cc1,?,9.1%[38.3 µM],1.9,-0.3,4.6,10.7
CCN(CC(=O)Nc1ccccc1C(F)(F)F)C(=O)c1ccc2c(c1)NC(=O)C(C)S2 (stereo unspecified),-0.3,0.0%,0.4,-1.0,9.2,-11.0
O=C(COC(=O)c1ccc(Cl)nc1)Nc1cccc(S(=O)(=O)N2CCCCC2)c1,-5.7,3.1%,-1.3,-0.5,-20.5,-4.6
CC(=O)N1c2ccccc2CC1C(=O)NCc1cccc(Cl)c1 (stereo unspecified),/,-0.5%,/,1.8,3.1,/
CN(C)CCCNC(=O)c1cc(S(=O)(=O)N2CCOCC2)ccc1F,3.0,-1.6%,-1.0,-0.5,10.4,19.9
O=C1CN(C(=O)c2c(F)cccc2Cl)C(c2ccc(F)cc2)c2cc(Br)ccc2N1 (stereo unspecified),/,0.4%,/,1.5,18.8,/
CCCCNC(=O)/C(C#N)=C/c1ccc(-c2ccc(S(=O)(=O)N3CCOCC3)cc2)o1,10.6,16.7%,0.1,0.8,21.2,4.7
CC1(c2ccc(OC(F)F)cc2)NC(=O)N(CC(=O)Nc2ccc(F)cc2)C1=O (stereo unspecified),-1.0,4.2%,-0.6,18.7,-8.6,-0.2
Clc1ccc(SCc2csc(N3CCOCC3)n2)cc1,-13.7,3.7%,-5.9,0.1,7.6,-3.0
CN1CCO/C1=C(\C(Cl)=C(Cl)Cl)[N+](=O)[O-],-1.3,-1.2%,-0.8,0.5,5.0,-10.2
CCCCN(C(=O)CC1CCCCC1)c1c(N)n(CCCC)c(=O)[nH]c1=O,-15.6,0.9%,-1.7,-0.9,-5.2,-1.4
Nc1ncnc(Nc2ccccc2Oc2ccccc2)n1,-6.7,1.6%,0.1,1.6,-4.5,-5.9
COc1ccc(-c2ccc(/C=C3/C(=N)N4C=CSC4=NC3=O)o2)c([N+](=O)[O-])c1,?,?,2.7,1.1,12.6,-16.0
O=C(NCCCc1ccccc1)c1cc([N+](=O)[O-])ccc1Cl,0.6,-0.3%,2.8,-0.1,3.0,-0.8
CCOC(=O)C1CCCN(Cc2ccc(O)c(OC)c2)C1 (stereo unspecified),-1.5,/,-1.7,-0.4,-2.8,-41.9
COc1cccc(N2CCN(C(=O)c3cc4cc5cc(C)ccc5nc4s3)CC2)c1,/,4.8%,/,1.1,-16.4,/
Cc1ccccc1-n1c(=S)[nH]c2nc3c(cc2c1=O)CCCC3,4.9,0.2%,-3.4,0.5,-0.5,-7.8
O=S1(=O)[C@H]2C[C@@H]3C=C[C@@]2(CN1Cc1cccc(F)c1)O3,9.9,0.1%,-5.0,-0.2&-0.5,10.7,-2.6
O=C(CCCN1C(=O)/C(=C\c2ccco2)SC1=S)Nc1ccc2ccccc2c1,-15.4,16.1%,-0.3,-0.2,40.6,-1.0
CCCN(CC(=O)Nc1ccccc1OC)C(=O)CN1C(=O)NC(C)(C)C1=O,6.8,-0.6%,-4.7,-0.4,-8.3,-15.0
Cc1c(Cl)cccc1NC(=O)CC1Oc2ccccc2NC1=O (stereo unspecified),3.1,28.1%&0.5%,-1.0,0.4&-0.4,-12.5&-0.7,3.8
COC(=O)c1ccc(CSc2nnc3ccccn23)o1,2.2,-1.2%[38.3 µM],0.9,-0.2,4.0,-14.8
COc1cccc(-c2cc3nc(NCc4cccnc4)n(C)c(=O)c3s2)c1,3.1,3.7%,-1.7,0.8,21.4,-3.4
O=C(c1cccc(F)c1)N1CCN(c2cccc(Cl)c2)CC1,-1.5,3.3%,-0.2,2.7,10.8,-6.6
CCNC(=O)c1c(NC(=O)c2cc(-c3cc(C)ccc3O)n[nH]2)sc2c1CCCC2,0.5,0.6%,0.0,-0.4,14.9,-0.7
Cc1ccnc(NC(=O)C2CCN(S(=O)(=O)c3cccc4nonc34)CC2)c1,1.9,1.2%,1.0,0.2,-12.2,-24.6
Cc1ccccc1C(=O)Nc1nc2nc(C)c(C)c(=O)n2[nH]1,/,0.2%,/,1.3,-16.6,/
COCCCn1c(SCC(=O)N2CC(=O)Nc3ccccc32)nnc1-c1ccoc1C,1.8,-0.1%,-3.6,0.5,-0.9,-12.0
Cc1cc(C(=O)COC(=O)Cc2ccc(Br)cc2)c(C)n1C,-10.8,-1.0%,1.4,1.7,0.4,-1.7
O=C(NC(NC(=O)c1ccccc1)c1cccc([N+](=O)[O-])c1)c1ccccc1,0.0,3.4%,-2.8,0.0,-5.8,-23.4
COc1ccc(/C=C/c2c(-c3ccc(OC)cc3)oc3cccnc23)cc1,64.2,9.0%,-3.0,1.0,-0.1,-10.6
